Compound activity from PubChem.
LASV entry inh – qHTS for Inhibitors of binding or entry into cells for Lassa Virus; Lassa virus pseudotype entry inhibition, cell reporter; control for the full effect not named in the record; Potency, µM (titrated, usually from 37.9 µM), inactives show at the top dose activity change, negative = inhibition, most hits filed as inhibitors; 300,000 compounds, 1.2% hits; AID 540256, 2011; active means well fitted inhibition curve with a large enough effect; inconclusive means small, poorly fitted or top-dose-only effect, or effect the other way; inactive means flat fitted curve, though single readings scatter; tested in HEK293 cells; further: on the % scale 0 is the no-effect control and ±100 the full control effect; nearly all actives have a fitted effect of over 50% in size; luciferase read-out
SARS PLP yeast – qHTS of Yeast-based Assay for SARS-CoV PLP; 330,000 compounds, 0.19% hits; S. cerevisiae expressing SARS-CoV PLpro, growth rescue; control for the full effect not named in the record; Potency, µM (top dose mostly 32.9 µM), inactives show top-dose activity, positive = growth rescue; further: 0% is about no effect; nearly all actives have a fitted effect of over 55% in size; growth read by luminescence after 48 h
Cruzain Triton – qHTS Assay for Promiscuous and Specific Inhibitors of Cruzain (with detergent); Potency, µM, without a hit: max response, negative = inhibition, hits mostly inhibitors; purified cruzain, Z-FR-AMC fluorescence, 0.01% Triton; Cruzipain (Trypanosoma cruzi), P25779; 200,000 compounds, 0.43% hits; AID 1478, 2009; active means well fitted curve in the direction sought with a large enough effect; inconclusive means small, poorly fitted or top-dose-only effect, or another doubt; inactive means no such curve, though single readings can be large; an effect the other way counts as inactive or inconclusive;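 further: plate controls were neutral wells for no effect and buffer without enzyme for full effect; nearly all actives have a fitted effect of over 40% in size; top concentration of the series not given in the record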
Target sequence (P25779 123-467 limits assumed): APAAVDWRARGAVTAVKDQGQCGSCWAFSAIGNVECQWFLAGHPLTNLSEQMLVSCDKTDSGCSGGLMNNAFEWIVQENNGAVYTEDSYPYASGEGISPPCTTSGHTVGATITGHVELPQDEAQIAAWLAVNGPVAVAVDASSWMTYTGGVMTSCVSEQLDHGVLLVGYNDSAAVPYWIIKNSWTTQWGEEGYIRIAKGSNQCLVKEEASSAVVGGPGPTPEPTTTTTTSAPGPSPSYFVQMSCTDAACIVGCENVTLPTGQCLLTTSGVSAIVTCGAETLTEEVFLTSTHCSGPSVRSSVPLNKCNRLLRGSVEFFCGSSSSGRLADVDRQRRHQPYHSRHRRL
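Compounds were screened in titration against cruzain (1.5 nM) with 0.01% Triton X-100 to counter colloidal aggregation. Activity was the AMC fluorescence increase over 60 s after adding 2 uM Z-FR-AMC at pH 5.5.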
RE007 growth inh – qHTS Assay for Inhibitors of the HIV-1 protein Vpr. S. pombe RE007 Vpr strain, BacTiter-Glo ATP luminescence, 24 h; control for the full effect not named in the record. Potency, µM (series often up to 92.2 µM), inactives show at the highest dose activity change, negative = less growth. 360,000 compounds, 0.21% hits; active = well fitted falling curve with a large enough effect; inconclusive = small, poorly fitted or top-dose-only effect; inactive = no such curve, though single readings can be large or run the other way;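 further: on the % scale 0 is the no-effect control and ±100 the full control effect; nearly all actives have a fitted effect of over 50% in size; the assay follows cell death caused by Vpr and the record does not say whether a fall means rescue or toxicity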
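Fission yeast RE007 carrying one integrated HIV-1 vpr copy, seeded at OD 0.01 in PMG+AL medium with 23 nL pinned compound. Grown 24 h at 30 degrees; viability read by BacTiter-Glo luminescence after 5 min.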
NS1 function inh – qHTS Assay for Inhibitors of Influenza NS1 Protein Function | S. cerevisiae slowed by influenza A NS1, growth recovery by OD600 | Potency, µM (doses to about 46.1 µM), for the others: at the top dose activity, positive = more growth | 270,000 compounds, 0.4% hits | AID 2326, 2010; further: actives are rising curves; nearly all actives have a fitted effect of over 50% in size
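S. cerevisiae expressing influenza A NS1, grown in glucose, washed, then diluted 1:100 into pH 6.0 -URA galactose medium with 23 nl compound. Growth recovery read as OD600; NS1-free strain serves as control.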
MARV entry inh – qHTS for inhibitors of binding or entry into cells for Marburg Virus; Marburg virus pseudotyped entry inhibition, cell reporter; control for the full effect not named in the record; about a third of the inactives were read at about 46 µM; Potency, µM (series often up to 37.8 µM), without a hit: at the highest dose activity change, negative = inhibition, usual class: inhibitors; 300,000 compounds, 1.8% hits; AID 540276, 2011; active = well fitted inhibition curve with a large enough effect; inconclusive = small, poorly fitted or top-dose-only effect, or effect the other way; inactive = flat fitted curve, though single readings scatter; tested in HEK293 cells; about a fifth of its hits are not listed in these tables; further: on the % scale 0 is the no-effect control and ±100 the full control effect; luciferase read-out
StopGo reporter – High Throughput Screening for Foot and Mouth Disease Virus Antivirals; human cells with a luciferase reporter of 2A StopGo recoding; control for the full effect not named in the record; Potency, µM (series often up to 57.9 µM), inactives show top-dose signal change, negative = less light; 410,000 compounds, 1.2% hits; AID 1159524, 2015; active = well fitted falling curve with a large enough effect; inconclusive = small, poorly fitted or top-dose-only effect; inactive = no such curve, though single readings can be large or run the other way; tested in HEK293T cells; further: on the % scale 0 is the no-effect control and ±100 the full control effect; nearly all actives have a fitted effect of over 45% in size; luciferase light after 4 h
Cruzain noTriton – qHTS Assay for Promiscuous and Specific Inhibitors of Cruzain (without detergent). Cruzipain (Trypanosoma cruzi), P25779. purified cruzain, Z-FR-AMC fluorescence, no detergent. Potency, µM, without a hit: max response, negative = inhibition, most hits filed as inhibitors. 200,000 compounds, 2.3% hits; active means well fitted curve in the direction sought with a large enough effect; inconclusive means small, poorly fitted or top-dose-only effect, or another doubt; inactive means no such curve, though single readings can be large; an effect the other way counts as inactive or inconclusive;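 further: plate controls were enzyme without inhibitor for no effect and buffer without enzyme for full effect; nearly all actives have a fitted effect of over 40% in size; top concentration of the series not given in the record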
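Purified cruzain at 1.5 nM, pre-incubated 15 min with compound at room temperature in 100 mM sodium acetate pH 5.5, 5 mM DTT, 0.00005% Triton X-100. Reaction started with 2 uM Z-FR-AMC; AMC fluorescence increase over 60 s gives rate.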
* marks the source's active call; other numbers are inactive results; ? = inconclusive; . = not tested or not shown; & = joins results of further samples; [ ] = dose if it differs, or a comment. Unless noted, the call rests on the fitted dose curve; in most records, active means well fitted rising curve with a large enough effect; inconclusive means small, poorly fitted or top-dose-only effect; inactive means no such curve, though single readings can be large or run the other way. Potency means the concentration at half of the fitted maximal effect. Random draw from the library. Share with any hit: about 4.6%.

Values run as follows: SARS PLP yeast | NS1 function inh | LASV entry inh | MARV entry inh | Cruzain noTriton | RE007 growth inh | Cruzain Triton | StopGo reporter
CCCCn1c(N)c(N(CC(C)C)C(=O)Cn2c(=O)cnc3ccccc32)c(=O)[nH]c1=O
  0% | . | 19% | 16%[46.1 µM] | . | -1% | . | 25%
Cc1cc(C)n(C(=O)COc2ccc(Cl)cc2Cl)n1
  -7% | 5% | -18% | -1% | 5% | -6% | -1.8% | .
CCOc1ccc(C(=O)C2CCN(C(=O)c3ccccc3C(=O)O)CC2)cc1
  3% | 0% | -5% | 3% | 5% | 7% | 4.1% | -3%
C=C(C)c1cccc(C(C)(C)NC(=O)N2CCN(C/C=C/c3ccccc3)CC2)c1
  0% | -46% | -29% | -43% | 2% | -5% | 2.8% | 0%
COc1ccc(-c2c(C)[nH]n3c(=O)c(Cc4ccccc4)c(C)nc23)cc1
  15% | 6% | ? | ? | 13% | -3% | -0.6% | -20%
COc1ccc2[nH]c(=O)c(CN(Cc3nnnn3Cc3ccc(F)cc3)CC3CCCO3)cc2c1 (stereo not given)
  -1% | -2% | -15% | 0%&0% | 25% | 0% | -3.3% | -19%
CC(=O)c1c(C)[nH]c(C(=O)OCC(=O)N2CC(C)OC(C)C2)c1C (stereo not given)
  -7% | . | -13% | 2% | . | -8% | . | -13%
Cc1ccc(C)c(N(CC(=O)NCc2ccco2)C(=O)CCC(=O)Nc2ccccn2)c1
  4% | -7% | -4% | 7% | 19% | 1% | -4.5% | -9%
CCCCCC(=O)Nc1cccc(C2=NOC3(C2)C[C@@H](C(N)=O)N(C(=O)c2cc([N+](=O)[O-])cc([N+](=O)[O-])c2C)C3)c1 (stereo not given in full)
  -1% | -32% | . | . | . | 0% | . | -9%
CCN(CC)c1ccc(C=Nc2cccc(S(=O)(=O)N3CCOCC3)c2)c(O)c1
  3% | . | 13% | 9% | . | -11% | . | 6%
O=C(O)C1C2C=CC(C2)C1C(=O)NCCc1cccc(Cl)c1 (stereo not given)
  -2% | -1% | 7% | 6% | 5% | -13% | -1.6% | -13%
CCCSc1nnc(-c2ccccc2N)c(=O)[nH]1
  -10% | -12% | ? | 11% | 7% | -21% | -5.4% | 52%[activator]
CC(C)(C)OC(=O)N1CCC(c2c(C(=O)O)cnn2-c2ccc(Cl)cc2)CC1
  -14% | -19% | -18% | 1% | 5% | -6% | -3.9% | 14%
O=C(NCc1ccc(F)cc1)C(c1cccnc1)N(C(=O)c1csnn1)c1ccccc1 (stereo not given)
  3% | -1% | 1% | 7%[46.1 µM] | . | 20% | . | 3%
CC(C)n1cc(CN2CCN(C)C(CCO)C2)c2ccccc21 (stereo not given)
  -6% | ? | . | . | . | 2% | . | -3%
CCCCOC(=O)CCCN1C(=O)/C(=C2\SC(=S)N(CCCC(=O)OCCCC)C2=O)SC1=S
  -2% | -55% | . | . | . | 30% | . | 0%
COC(=O)C1CCN(CC(=O)NC(=O)NC2CCCCC2)CC1
  0% | . | 2%[46.1 µM] | ? | . | 2% | . | -2%
CCOc1ccc(-c2nnc(-c3ccncc3)o2)cc1
  -3% | -16% | -7% | -20% | -5% | ? | 1.8% | -13%
O=C(Nc1ccc(Cl)c(C(F)(F)F)c1)c1ccco1
  -23% | -121% | 4% | 14% | -12% | ? | -11% | -3%
CCc1ccc(C(C(=O)NCc2ccc(F)cc2)N(C(=O)c2csnn2)C2CC2)cc1 (stereo not given)
  -1% | 12% | -23%[46.1 µM] | ? | . | 5% | . | 14%

Continuation.
Values run as follows: SARS PLP yeast | NS1 function inh | LASV entry inh | MARV entry inh | Cruzain noTriton | RE007 growth inh | Cruzain Triton | StopGo reporter
COc1ccc(S(=O)(=O)N2CCOC2CNC(=O)C(=O)NCc2ccccc2Cl)cc1 (stereo not given)
  3% | -16% | -7% | -4% | . | -16% | . | -14%
CCOC(=O)N1CCN(C(=O)CN(c2cc(C)ccc2OC)S(=O)(=O)c2ccc(C)cc2)CC1
  . | . | -5%[46.1 µM] | 2%[46.1 µM] | ? | . | -2.9% | 20%
COc1cc(CCC(=O)OCC(=O)N2CCc3ccccc32)cc(OC)c1OC
  2% | -10% | . | . | . | -6% | . | -11%
O=C(NCc1ccccc1)C(c1ccc(O)cc1)N(C(=O)c1cnccn1)c1ccccc1 (stereo not given)
  2% | 11% | ? | -16%[46.1 µM] | . | 19% | . | -14%
CCN(C(=O)CSc1nc2ccccc2n1Cc1ccccc1C#N)c1ccccc1
  . | . | -3%[46.1 µM] | . | ? | . | 0.0% | 15%
Cc1ccnc(Nc2nc(-c3ccc(O)cc3O)cs2)c1
  -14% | -30% | . | . | . | ? | . | 19%
COc1ccc(N2C(=O)NC(=O)/C(=C\c3cn(C)c4ccccc34)C2=O)cc1
  1% | 4% | . | . | . | 4% | . | -17%
O=C(Nc1cccc(O)c1)c1ccc(S(=O)(=O)N2CCCCCC2)cc1
  1% | 10% | ? | ? | . | -1% | . | -9%
COCc1nnc(N)s1
  1% | -3% | 9% | 8% | 6% | 0% | 5.8% | -23%
COc1ccc(CCNC(=O)CSc2ccc(-c3ccccc3)nn2)cc1OC
  -7% | 7% | 8% | -8% | -5% | 4% | 2.4% | .
N#Cc1ccccc1CN1C(=O)NC(Cc2c[nH]c3ccccc23)C1=O (stereo not given)
  0% | -3% | ? | -1%[46.1 µM] | . | -18% | . | -7%
O=C(/C=C/c1ccc(Cl)cc1)NCCCn1ccnc1
  1% | 2% | . | -2% | . | -2% | . | 39%[activator]
COCCCNC(=O)C1CC(=O)N(CCc2ccc(OC)c(OC)c2)C1 (stereo not given)
  2% | -4% | 0% | 9% | -3% | 17% | 2.5% | -7%
COc1ccc(OC)c(-c2cc(C(=O)NC(C)c3ccccc3)no2)c1 (stereo not given)
  . | . | ? | -16%[46.1 µM] | -4% | . | -13% | 11%
O=C(NCC1CCCO1)C1CCCN(S(=O)(=O)c2cc(Cl)ccc2Cl)C1 (stereo not given)
  -4% | -1% | 0% | -6% | . | 11% | . | ?
CN(Cc1cccs1)C(=O)C1CC(=O)N(Cc2ccccc2)C1 (stereo not given)
  -9% | . | -1% | 26% | . | 9% | . | 5%
O=C1CC(/C=C/c2ccco2)=Nc2ccccc2N1
  2% | ? | 15% | 3% | -4% | 0% | -2.7% | -11%
COc1cccc(C(=O)Nc2ccc(-c3nc4ccccc4s3)cc2Cl)c1
  . | . | 8%[46.1 µM] | . | ? | . | -3.1% | -19%
CCOc1ccc(C2C(C(=O)c3ccc(C)o3)=C(O)C(=O)N2CCN2CCOCC2)cc1OC (stereo not given)
  2% | 13% | -1% | -11% | 10% | 1% | -4.5% | 1%
COc1ccc(OC)c(S(=O)(=O)N2CCC(C(=O)NCCc3ccc(OC)c(OC)c3)CC2)c1
  6% | -7% | ? | ? | ? | 18% | -0.8% | -6%

Continuation.
Values run as follows: SARS PLP yeast | NS1 function inh | LASV entry inh | MARV entry inh | Cruzain noTriton | RE007 growth inh | Cruzain Triton | StopGo reporter
CCC(=O)NCC(c1cccs1)N1CCOCC1 (stereo not given)
  -3% | -6% | -4% | -16% | -3% | -3% | 4.0% | .
CCc1ccc(CNCCc2c[nH]c3ccccc23)cc1
  3% | 8% | . | . | . | -15% | . | 2%
O=C1CCCN2N=C(SCC(=O)Nc3cccc(Cl)c3)SC2=N1
  -1% | 7% | -23%[46.1 µM] | -27%[46.1 µM] | . | 20% | . | -23%
COc1cccc(CNC(=O)CCn2nc(C)c3c(C)n(-c4ccccc4)nc3c2=O)c1
  . | . | 9%[46.1 µM] | . | 7% | . | -1.6% | -21%
O=C1NC(=O)C2(CCC(C3CCCCC3)CC2)N1 (stereo not given)
  . | . | ? | 1% | . | -13% | . | -18%
O=C(NCc1ccncc1)c1cccc(S(=O)(=O)NCc2ccccc2)c1
  1% | 1% | . | . | . | 0% | . | 18%
Cc1oc(C(C)(C)C)cc1C(=O)Nc1cccc(/C=C/C(=O)O)c1
  -7% | -1% | 6% | 14% | -12% | 7% | -3.6% | 0%
O=c1c2ccccc2nc(N2CCN(c3cccc(Cl)c3)CC2)n1-c1ccccc1
  . | . | ? | ? | -11% | . | -4.7% | ?
Cc1c(C(=O)NCCSCc2ccccc2Cl)cccc1[N+](=O)[O-]
  -6% | -26% | -29% | -29% | 0% | 14% | -2.7% | ?
O=C(NCCc1nc2ccccc2[nH]1)c1ccco1
  9% | 0% | -9% | 18% | 13µM* | 1% | -24% | 0%
Cc1cccc(OCc2nnc(-c3ccccc3)o2)c1
  . | . | 14%[46.1 µM] | 10%[46.1 µM] | -25% | . | -6.3% | 30%[activator]
COc1ccc(NC(=O)CN(C)C(=O)C2=COCCO2)cc1
  -2% | . | 8%[46.1 µM] | 9% | . | 2% | . | -11%
CCC(=NCCc1ccc(OC)c(OC)c1)c1ccccc1O
  1% | 4% | . | . | . | 7% | . | 3%
Cc1cc2cc(CN(CCN(C)C)C(=S)NCc3ccco3)c(=O)[nH]c2cc1C
  1% | 2% | -23% | ? | . | -13% | . | -22%
O=C(c1cc([N+](=O)[O-])ccc1N1CCOCC1)N1CCOCC1
  10% | 14% | -1% | 6% | 10% | -5% | -5.4% | -21%
COc1ccc(NC(=O)c2ccc(-n3cnnn3)cc2)c([N+](=O)[O-])c1
  -1% | -8% | 3%[46.1 µM] | ? | . | 12% | . | 0%
NC(=O)[C@H]1CC2(CC(c3cccc(NC(=O)[C@H]4CCC(=O)N4)c3)=NO2)CN1C(=O)c1ccccc1 (stereo not given in full)
  2% | 0% | . | . | . | 7% | . | 3%
COc1ccc(N2CC(NC(=O)c3cccs3)CC2=O)cc1OC (stereo not given)
  . | . | 12%[46.1 µM] | . | -10% | . | -2.0% | -4%
